Bioassay records: PubChem BioAssay, National Center for Advancing Translational Sciences (NCATS)
hNpr1 antagonist: antagonists of human natriuretic peptide receptor Npr1; P16066; HEK293 hNpr1 GloSensor cGMP, ANP-stimulated luminescence; Potency, µM (doses to about 46.3 µM), inactives show at the highest dose activity change, negative = inhibition, most hits filed as inhibitors; actives 1.6% (n = 76,000); AID 1347048; active = well fitted inhibition curve with a large enough effect; inconclusive = small, poorly fitted or top-dose-only effect; inactive = no such curve, though single readings can be large or run the other way;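 also: nearly all actives have a fitted effect of over 60% in size; nearly all hits also lower the signal before the agonist is added; a reference antagonist and vehicle were the controls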
Target sequence (P16066 whole entry, looked up): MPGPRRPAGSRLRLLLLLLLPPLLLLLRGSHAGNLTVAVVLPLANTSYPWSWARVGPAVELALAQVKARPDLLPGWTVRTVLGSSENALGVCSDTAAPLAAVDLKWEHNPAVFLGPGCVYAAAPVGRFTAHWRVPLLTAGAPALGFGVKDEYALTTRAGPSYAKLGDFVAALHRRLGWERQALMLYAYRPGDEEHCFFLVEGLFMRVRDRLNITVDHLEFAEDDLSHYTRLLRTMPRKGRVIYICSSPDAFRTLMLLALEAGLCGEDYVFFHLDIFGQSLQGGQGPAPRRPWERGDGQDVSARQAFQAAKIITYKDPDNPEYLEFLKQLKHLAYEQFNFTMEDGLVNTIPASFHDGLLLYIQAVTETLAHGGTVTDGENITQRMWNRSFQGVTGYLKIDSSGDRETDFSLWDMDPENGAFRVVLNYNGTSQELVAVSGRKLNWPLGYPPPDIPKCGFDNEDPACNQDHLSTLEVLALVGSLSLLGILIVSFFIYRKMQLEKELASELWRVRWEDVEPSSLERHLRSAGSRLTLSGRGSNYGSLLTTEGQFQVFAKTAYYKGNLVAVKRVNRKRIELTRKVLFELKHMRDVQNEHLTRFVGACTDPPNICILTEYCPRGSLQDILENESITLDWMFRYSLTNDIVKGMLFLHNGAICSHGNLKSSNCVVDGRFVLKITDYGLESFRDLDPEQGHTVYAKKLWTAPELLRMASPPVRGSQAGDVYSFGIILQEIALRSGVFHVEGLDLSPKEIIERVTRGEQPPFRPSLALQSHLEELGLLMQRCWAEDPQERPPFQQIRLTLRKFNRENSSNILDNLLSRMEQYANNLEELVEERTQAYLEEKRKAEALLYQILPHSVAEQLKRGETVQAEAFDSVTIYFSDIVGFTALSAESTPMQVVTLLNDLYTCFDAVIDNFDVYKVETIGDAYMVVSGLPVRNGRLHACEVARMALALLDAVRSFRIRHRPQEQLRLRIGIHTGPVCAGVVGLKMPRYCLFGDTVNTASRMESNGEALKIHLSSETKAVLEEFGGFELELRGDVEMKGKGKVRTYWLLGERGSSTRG
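Compound pre-incubated 30 min at room temperature on GloSensor-loaded HEK293 cells stably carrying hNpr1 and the pGS-40F cGMP biosensor. Stimulation uses hNppA at 0.1 nM final; luminescence is taken at baseline and 20 min post-agonist.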
Starred values were filed as active, the others as inactive; ? = inconclusive; & = joins results of further samples; [ ] = remark or other dose. % is scaled to controls: 0 for no effect and ±100 for the full control effect; potency is read from the fitted curve at half-maximal effect. Some of the compounds tested; the hit share may differ from the screen's.

molecule	hNpr1 antagonist
O=C(C1CCC1)N1c2ccccc2CC1c1noc(C2CCOCC2)n1 (stereo unspecified)	?
CCC1Oc2ccc(NS(=O)(=O)c3ccc(C)c(F)c3)cc2CN(Cc2ccc(OC)cc2)C1=O (stereo unspecified)	-20%
CCOc1cc(=O)n2c(c1C(=O)NCCc1ccccc1)CCCCC2	-11%
CC(=O)Nc1ccc(C(=O)N2CCC3(CC2)N=C(c2ccc(Cl)cc2)NO3)cc1	?
COc1ccc([C@H]2C[C@@H](O)[C@@H](O)[C@@H]2NCc2cn(C)c3ccccc23)cc1	-24%[70.6 µM]
Cc1ccc(CS(=O)(=O)NC2CCc3n[nH]c(=O)n3CC2)cc1C (stereo unspecified)	0%
COc1cccc(-c2ccc(COc3ccc4c(cnn4CCC(=O)O)c3)cc2)c1F	2%[70.6 µM]
COc1ccccc1-c1cc2c(ccn2C)c(C(=O)NCc2c(C)cc(C)[nH]c2=O)n1	-1%[70.6 µM]
COc1ccc(C(=O)N2CCn3c(nn(-c4ccc(F)cc4F)c3=O)C2)cc1	-15%
COc1cc(-c2cc3c(nc2OC)nc(CC2CC2)n3C)ccn1	-4%[70.6 µM]
CCC(C)NC(=O)C1COC2(CCN(C(=O)CC(C)(C)C)CC2)N1C(=O)c1cccc(C)c1 (stereo unspecified)	-9%
CC(=O)N1CCN(c2cc(-c3noc([C@@H]4CCCN4Cc4ccc(C(F)(F)F)cc4)n3)ccn2)CC1	-15%
CN(C1CCc2ccccc21)[S+](=O)([O-])c1cccc(C(F)(F)F)c1 (stereo unspecified)	0%
CC1=C[C@@H](CN2CCC(O)CC2)[C@H](C(C)C)C[C@H]1Cc1nnc(-c2ccc(N(C)C)cc2)o1	5%
COc1ccc(Cl)cc1-c1ccc2c(c1)C(=O)N1CCN(C(=O)CO)C[C@@H]1C(=O)N2	0%[70.6 µM]
Cc1ccccc1-n1nc(C)c(CCC(=O)NC2CC2)c1Oc1ccccc1	-21%
CCCC1c2nccn2CCCN1C(=O)c1cnco1 (stereo unspecified)	2%
COc1ccccc1CN1C[C@@H]2C(C(=O)NCc3ccccc3)=NO[C@@H]2C1	-1%[70.6 µM]
CCOc1ccccc1C(=O)NC1CCCN(c2cc(-c3ccc(Cl)cc3)[nH]n2)C1 (stereo unspecified)	-16%
CCC(C)NC(=O)c1ccc2c(c1)CC(=O)N2C (stereo unspecified)	5%
O=C(c1cnc(Nc2ccccc2)nc1)N1CC[C@H](CO)[C@@H](O)C1	3%
CCCn1cnnc1CNC1CCC2(CCNCC2)CC1	3%
CC[C@@]1(O)CCN(C(=O)CCn2nc(C)c(C(C)=O)c2C)C[C@H]1O	0%
COCC(=O)N1CC[C@@H](CC(=O)O)[C@@H](CCN2CCN(c3ccc(F)cc3)CC2)C1	4%[70.6 µM]
Cc1cc(-c2cc(C(=O)NCc3c(C)cc(C)[nH]c3=O)c3c(c2)ncn3C)ccn1	7%[70.6 µM]
COCCN1C(=O)CCC2(CNC(=O)CCc3nc4ccccc4[nH]3)CCCC=C12 (stereo unspecified)	7%
CN1Cc2nc(-c3cccc(C(F)(F)F)c3)ccc2OCC1=O	0%[70.6 µM]
O=C(N[C@H]1C[C@H]2C(=O)Nc3ccccc3C(=O)N2C1)c1cccnc1	9%[70.6 µM]
COc1ncccc1-c1ccnc(-c2nnc(C)n2-c2ccccc2)c1	-2%[70.6 µM]
CN1C(=O)c2cccn2CC1C(=O)NCC1CC1 (stereo unspecified)	-1%
O=C1CCN(CC2CC2)CCCC(c2nc(-c3cccnc3)no2)CCN1 (stereo unspecified)	1%
O=C(c1ccccn1)N1CCC2(CC1)NCCc1c2[nH]c2ccccc12	0%
COCCOc1cc(-c2noc([C@@H]3CCCN3Cc3ccc(NC(C)=O)cc3)n2)ccn1	4%
COc1ccc(-c2nc(-c3ccccc3)nc3c2CN(C(=O)Cc2ccccn2)CC3)cc1	-1%
CCNC(=O)N1CCOC(CN(CC2CC2)C(=O)c2cccc(F)c2)C1 (stereo unspecified)	-2%
Cc1ccc(OCCC2CCN(C(=O)Cc3c[nH]c4ccccc34)C2)cc1 (stereo unspecified)	?
COCC(=O)NC1CCc2nnc(C3CC3)n2CC1 (stereo unspecified)	4%
COc1ccc(-c2ccnc(N[C@H]3CO[C@H]4[C@@H]3OC[C@H]4OC(=O)Nc3cccc(C(C)=O)c3)n2)cc1	11µM*
CCOc1ccc(CC(=O)N2CCCN(C(=O)C3CC3)c3ccccc32)cc1	2%
O=C(NCC1CCOCC1)Nc1cccc(F)c1	3%
Cc1sc2ccn(Cc3ccc(F)cc3)c(=O)c2c1C(=O)NC1CCCC1	4%
CCc1nc(CN(C)Cc2cc3n(n2)CCN(C(=O)N(C)C)C3)no1	-2%
CCN(CC)CCCNC(=O)c1cn2ccnc(-c3ccccc3)c2n1	-1%
C[S+](=O)([O-])NCCn1ccc2cc(OC3CCN(C(=O)C4CCCC4)CC3)cnc21	-27%[70.6 µM]
CN(C)c1ccc(C(=O)N2CCC(Cc3nc(-c4cnccn4)no3)CC2)cc1	-12%
Cc1nc(CC(=O)NCc2cccnc2N2CCOCC2)cs1	0%
COCCCNC(=O)c1cnc2c(c1)N(C(=O)Cc1ccc(C(C)C)cc1)CCC2	-2%[70.6 µM]
O=C1CCN(Cc2ccccn2)CCCC(c2nc(-c3cccnc3)no2)CCN1 (stereo unspecified)	4%
CC(C)c1nn(C)c2c1C(c1cccc3c1OC(C)(C)C3)CC(=O)N2 (stereo unspecified)	-1%
O=C(NCc1ccccc1)N1CCC[C@H](n2c(=O)n(CC3CC3)c3cccnc32)C1	-4%
Cn1ccc2c(C(=O)NCC3CCC(=O)N3)nc(-c3ccccc3C#N)cc21 (stereo unspecified)	-1%[70.6 µM]
CNC(=O)[C@@H](C1CC1)N1CCC[C@H]1C(=O)NC1CC1	2%[70.6 µM]
Cn1c(=O)n([C@H]2CCCN(C(=O)C3CCC3)C2)c2ncccc21	3%
COCC1CN(C2CCC2)CC12CCN(C(=O)NCc1ccc(F)cc1)CC2 (stereo unspecified)	-23%
COc1ccccc1N1CCN([C@H]2[C@@H]3OC[C@@H](O3)[C@@H](NC(=O)Nc3cccc(C#N)c3)[C@@H]2O)CC1	-22%
Cc1cc(NC(=O)N(C)CC2CCOCC2)ccc1Br	-16%
Cc1noc(C)c1-c1cnc(Nc2ccc(F)c(Cl)c2)c2c1CCO2	?
O[C@H]1CC[C@@H](Cc2cc(COc3ccccc3)on2)O[C@@H]1CN(CC1CC1)CC1CC1	-9%[70.6 µM]
CNC(=O)[C@H]1C[C@H](Oc2cccnc2)CN1S(=O)(=O)c1ccccc1C	-19%
O=C(c1ccccn1)N1CC2CC(C1)[C@H]1CCCC(=O)N1C2 (stereo partly specified)	3%

Following part.
molecule	hNpr1 antagonist
Cc1noc(C)c1-c1cc2c(cc(C)n2CCN(C)C)c(-c2ccnn2C)n1	-14%[70.6 µM]
N#Cc1cccc(-c2cn3c(n2)N(C(=O)c2cccs2)CCC3)c1	2%
COCCCNC(=O)c1cnc2n[nH]c(-c3ccccc3)c2n1	-6%[70.6 µM]
Cc1cnc(CC2CCN(C(=O)CCc3c[nH]c4ccccc34)C2)n1CC1CC1 (stereo unspecified)	-1%
Cn1c(CCNC(=O)C[C@H]2NC(=O)c3ccccc3NC2=O)nc2ccccc21	-2%
COc1ccc(CN2CCN3C(=O)N(Cc4ccc(C)cc4)C[C@H]3C2)cn1	?
O=C(c1nc2c(o1)CCN(Cc1ccccc1F)CC2)N1CCOCC1	-1%[70.6 µM]
COC(=O)[C@@H]1Cc2ncn(Cc3ccc(OC)cc3)c2CN1Cc1ccc(OC)cc1	-27%[70.6 µM]
Cc1ccc(OCc2nc(C3CCN(C(=O)c4ccn[nH]4)CC3)no2)cc1	?
COc1cccc(NC(=O)CCC2CCN(S(=O)(=O)c3ccccc3)CC2)c1	-13%
Cc1ccc(O[C@H]2COCC[C@H]2NC(=O)Cc2c(F)cccc2Cl)cn1	-1%
CC(=O)Nc1ccc(CN2C[C@@H](F)[C@@H](OCc3nc4ccc(F)cc4[nH]3)C2)cc1	7%[70.6 µM]
O=C(CCn1cncn1)NCc1cccnc1Oc1cccc(C(F)(F)F)c1	4%
COc1ccc(F)c(-c2nc(Cn3cnc4ccccc43)c(C)o2)c1	?
CCOC(=O)C1=C(C)N=C2SC=C(CC(=O)N3CCCC3)N2C1c1cc(C)ccc1C (stereo unspecified)	?
Cc1cncc(C(=O)N2CC(CO)C3(CCNCC3)C2)c1 (stereo unspecified)	0%
O=C(Cc1cccs1)N1CCC(c2n[nH]c(=O)n2Cc2ccc(F)cc2)CC1	0%
Cc1cccnc1C(=O)N[C@@H]1CN(S(C)(=O)=O)C[C@H]1CN(C)C	6%
C[C@@H](N)C(=O)N1CCC(n2nccc2NC(=O)c2ccc3c(c2)OCO3)CC1	-1%
COCCNC(=O)C[C@@H]1c2nc(NC(=O)CC(C)(C)C)sc2C[C@@H]2[C@](C)(CO)[C@H](O)CC[C@]21C	0%
CN1C(=O)CS(=O)(=O)C12CCN(C(=O)c1cc(F)cc(F)c1)CC2	7%
O=C(Cn1nc2c(cc1=O)CCCC2)N1CCSCC1	1%
CN1[C@@H](CCC(=O)N2CCOCC2)CNC(=O)[C@@H]2[C@H]1CCN2Cc1csnn1	5%[70.6 µM]
COCC(=O)NC1CCCc2c1[nH]c1ccc(F)cc21 (stereo unspecified)	-5%
COc1ccc(Cl)cc1C(=O)N1CCCC(n2cc(-c3noc(C)n3)nn2)C1 (stereo unspecified)	-1%
O=C(N[C@H]1CCOC[C@H]1C1CCOCC1)c1ccc(CN2CCCC2)o1	3%
Cc1ccc(C(=O)N2CCC3(CCCNC3=O)C2)cc1N1CCNC1=O (stereo unspecified)	5%
CN1C(=O)C2(CCN(Cc3ccsc3)C2)c2ccccc21 (stereo unspecified)	0%[70.6 µM]
N#Cc1ccc(OCC2CN(Cc3cccc(C(F)(F)F)c3)C(=O)c3c(ccnc3-c3ccc(OCC(=O)O)cc3)O2)cc1 (stereo unspecified)	-1%
COc1ccc(NC(=O)Cn2c(C)ccc(NS(=O)(=O)c3ccccc3)c2=O)cc1	2%
O=C(CN1C(=O)NC(c2ccc(Cl)cc2)C2=C1COC2=O)NC1CCCC1 (stereo unspecified)	2%
O=C(c1cccc(F)c1)N1CCC(Oc2ccccc2)C1 (stereo unspecified)	-19%
CCn1cc(-c2c(-c3ccccc3)ncn2CC(=O)O)cn1	-9%
Cn1cc(C(=O)NCC2CN(Cc3ccccc3)CC23CN(c2ccccc2)C3)cn1 (stereo unspecified)	3%[70.6 µM]
C#CCOc1cccc(CN2CCN3C(=O)CN(C)C(=O)C3C2)c1 (stereo unspecified)	-2%
CN1c2cc(C(=O)Nc3ccc(F)c(F)c3)ccc2C(=O)N2CCCCCC21 (stereo unspecified)	-1%
COc1ccccc1CN1C(=O)COC[C@@H]1[C@H](O)c1ccc(NC(=O)CCc2ccccc2)cc1	3%
COCCOc1ccc2c(n1)CCN(C(=O)CC(C)C)C2	5%
Cc1ccc(NC(=O)CCn2ccn3nc4c(c3c2=O)CCCC4)c(F)c1	-1%
CN(C)C(=O)c1ccc(-c2cc3c(cn2)CN(CCc2ccccc2)CCN3)cc1	-14%[70.6 µM]
COc1cccc(C(=O)NCCC2CCN(C(=O)Nc3ccccc3F)CC2)c1	-7%
CCc1noc(-c2cccn3c(CNC(=O)c4c(F)cccc4Cl)nnc23)n1	6%
CCN1c2cc(C(=O)NCc3ccc(C)c(C)c3)ccc2C(=O)N2CCCCC21 (stereo unspecified)	-4%
CCN1C(=O)C2(CCN(C(C)=O)CC2)c2ccccc21	0%
CC(C)C(=O)N1CCC2(CC1)CCC(O)(CN(C)C)CC2	7%
Cc1ccccc1[C@H]1C[C@@H](O)[C@@H](O)[C@@H]1NC(=O)c1c(-c2ccccc2)noc1C	-10%[70.6 µM]
COc1cccc([S+](=O)([O-])N2CCC3(CC2)C(=O)NCN3Cc2ccc(Cl)cc2)c1	1%&3%
O=C1NC[C@@H](CCC(=O)N2CCCCC2)N2C[C@@H](NC(=S)Nc3ccc(Cl)cc3)C[C@@H]12	2%
O=C(C1Cc2ccccc2O1)N1CCc2onc(-c3ccc(F)c(F)c3)c2C1 (stereo unspecified)	4%
